# D2 ag: human D2 receptor agonism in beta-arrestin assay. P14416. DiscoveRx PathHunter D2 beta-arrestin, luminescence, 90 min; 100% = 57 uM dopamine signal. activation, % (no concentration beside the values). 360,000 compounds, 0.084% hits. AID 624465; in the data active = activation above about 40%; inconclusive = about 15% to 40%; inactive = below about 15%; note: compound concentration not given in the record; the text of the record calls up to 30% inactive
# Target sequence (P14416 whole entry, looked up): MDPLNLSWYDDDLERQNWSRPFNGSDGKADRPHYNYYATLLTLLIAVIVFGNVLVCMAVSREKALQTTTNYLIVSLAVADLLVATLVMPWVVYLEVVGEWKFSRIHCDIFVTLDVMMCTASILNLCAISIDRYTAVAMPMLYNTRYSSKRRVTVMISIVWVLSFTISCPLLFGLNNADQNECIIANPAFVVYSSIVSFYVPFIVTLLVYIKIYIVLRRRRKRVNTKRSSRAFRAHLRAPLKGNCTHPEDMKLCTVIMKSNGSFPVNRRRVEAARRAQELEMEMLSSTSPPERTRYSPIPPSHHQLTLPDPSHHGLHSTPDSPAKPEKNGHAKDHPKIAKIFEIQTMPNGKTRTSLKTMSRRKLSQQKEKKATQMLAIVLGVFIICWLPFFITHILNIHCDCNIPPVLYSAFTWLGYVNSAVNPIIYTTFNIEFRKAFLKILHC
#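 DiscoveRx PathHunter D2 beta-arrestin cells (2,100/well) attached overnight, then compound-stimulated 90 min at 37 C in HBSS/10 mM HEPES/0.1% Tween-20 buffer; beta-galactosidase complementation read by luminescence after 1 h at ambient temperature. Dopamine 57 uM final (EC100) as control.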
# D2 potentiator: human D2 receptor positive allosteric modulation | P14416 | DiscoveRx D2 beta-arrestin cells, luminescence, 90 min; 100% = 57 uM dopamine signal | potentiation, % (test concentration not listed) | 360,000 compounds, 0.23% hits | AID 624464; active = potentiation of 50% or more; inconclusive = 30% to 50%; inactive = 30% or less;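 note: compound concentration not given in the record; tested on top of an EC20 dose of dopamine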
#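 D2 cells co-treated with compound plus 50 nM dopamine (EC20) for 90 min at 37 deg C to detect potentiation. Beta-arrestin recruitment was read as enzyme-fragment luminescence after 1 h at ambient temperature. Full response was set by 57 uM dopamine.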
# PINK1 expr mod: changes PINK1 expression. Potency, µM (titrated, usually from 76.6 µM), for inactives: at the top dose activation (PINK1 increase), actives largely listed as activators. PINK1 immunofluorescence, high-content cytometry, 24 h. 410,000 compounds, 0.2% hits; active = well fitted activation curve with a large enough effect; inconclusive = small, poorly fitted or top-dose-only effect; inactive = flat fitted curve, though single readings scatter; cell line not stated here;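 note: potency is the fitted concentration of half-maximal effect; % of control where 0% means no effect; nearly all actives have a fitted effect of over 65% in size; a mitochondrial uncoupler was the plate control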
#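 Stable cell line, 250 cells/well, 12 h attachment; compounds pinned at 5 concentrations, 24 h; CCCP control. Fixed with nuclear dye, primary antibodies 12 h at 10 degrees C, secondary plus cell stain; laser-scanning cytometer read.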
# TRPML1 inh: blocks the human TRPML1 channel | Q9GZU1 | TRPML1-inducible cells, Ca2+ dye fluorescence, FDSS; stronger effect = lower value; inhibition of EC80 agonist-evoked calcium signal | activity change, negative = inhibition, % (concentration not given with the values) | 390,000 compounds, 0.02% hits; in the data active means activity change below about -50%; inconclusive means about -30% to -50%; inactive means above about -30%;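 note: stimulus is agonist 54-4 at its EC80 concentration; % is set by controls: 0 for no effect and ±100 for the full control effect; the text of the record puts the active cut at -80%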
# Target sequence (Q9GZU1 whole entry, looked up): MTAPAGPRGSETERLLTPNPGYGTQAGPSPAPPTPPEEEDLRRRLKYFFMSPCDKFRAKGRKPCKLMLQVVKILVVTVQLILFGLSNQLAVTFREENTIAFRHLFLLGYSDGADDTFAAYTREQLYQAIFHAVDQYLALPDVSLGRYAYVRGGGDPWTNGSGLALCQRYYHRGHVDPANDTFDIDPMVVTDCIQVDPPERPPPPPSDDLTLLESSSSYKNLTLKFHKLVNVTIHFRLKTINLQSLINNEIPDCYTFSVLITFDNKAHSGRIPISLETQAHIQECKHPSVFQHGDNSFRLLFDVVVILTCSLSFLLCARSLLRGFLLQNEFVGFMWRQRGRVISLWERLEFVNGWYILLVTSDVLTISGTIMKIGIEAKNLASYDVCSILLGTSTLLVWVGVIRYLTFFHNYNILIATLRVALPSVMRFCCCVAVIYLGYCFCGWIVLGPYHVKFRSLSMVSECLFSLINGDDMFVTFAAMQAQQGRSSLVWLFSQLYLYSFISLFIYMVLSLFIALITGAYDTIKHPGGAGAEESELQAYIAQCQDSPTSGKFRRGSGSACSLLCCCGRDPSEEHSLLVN
#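 Tet-induced TRPML1-DL cells loaded with Ca8 no-wash calcium dye were read kinetically on FDSS. Compound addition was followed by EC80 agonist 54-4 (4 uM final); inhibition was read over 110 s.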
# Six1-Eya2 blk: inhibitors of human Six1/Eya2 interaction. AlphaScreen GST-Six1/His-Eya2 binding, biochemical; stronger effect = lower value; control for the full effect not named in the record. activity change, % (no concentration beside the values). 360,000 compounds, 0.56% hits; in the data active = activity change below about -65%; inconclusive = about -30% to -65%; inactive = above about -30%; note: % is set by controls: 0 for no effect and ±100 for the full control effect
#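 Compounds are tested against tagged Six1 and Eya2 proteins bridged by glutathione donor and nickel acceptor beads; after a one-hour incubation at 37 °C without light, AlphaScreen emission is recorded.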
# TRPML1 agonist: agonists of human TRPML1 channel. Q9GZU1. TRPML1-expressing cells, Ca2+ dye fluorescence, FDSS; host cell line not named in the record; reference of the full effect not given here. activation, % (test concentration not listed). 410,000 compounds, 0.12% hits. AID 624414; in the data active = activation above about 50%; inconclusive = about 30% to 50%; inactive = below about 30%; note: 0% is about no effect; the text of the record puts the active cut at 80%
#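 In this qHTS format, compounds were pin-transferred onto Ca8-dye-loaded TRPML1-DL cells induced with Tet overnight, and intracellular Ca2+ fluorescence was recorded kinetically for 110 s after a 10 s baseline. A subsequent 4uM final 54-4 (EC80) addition followed by a second 110 s read served as the antagonist phase.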
# Starred values were filed as active, the others as inactive; ? = inconclusive; · = no result given; & = joins results of further samples; [ ] = another dose, or the depositor's remark.
canonical_smiles	D2 ag	D2 potentiator	PINK1 expr mod	TRPML1 inh	Six1-Eya2 blk	TRPML1 agonist
CCc1ccc(N2C(=O)NC(=O)C(CCc3ccncc3)(CCc3ccncc3)C2=O)cc1	0.5	10	0.1%	21	1	-0.5
COC(=O)C1=C(c2cccc(OCc3ccccc3)c2)C[C@@H]2CC[C@H]1N2C(=O)NCc1ccc(Br)cc1	-5.3	-14	0.4%	18	-1	1.3
ClCCN(CCCl)c1ccc(-n2cnc3c(Cl)ncnc32)cc1	8.3	1	-1.6%	3	-4	0.2
O=C(c1cc(-c2ccc(Cl)cc2)n(-c2ccc(Cl)cc2Cl)n1)N1CCOCC1	-6.7	0	-2.3%	7	-23	-0.3
Cc1c(CC(=O)N2C[C@H]3C[C@@H](C2)c2cccc(=O)n2C3)c(=O)oc2c(C)c(O)ccc12	-4.8	-1	7.0%	-5	3	0.1
CCN(C(=O)COC(=O)c1cc(C)n(C2CC2)c1C)c1ccccc1	-3.4	-12	-1.0%	-5	-9	3.6
CC12CN3CC(C)(CN(C1)C3c1cccs1)C2O (stereo not given)	-1.6	-12	0.8%	-12	8	0.0
COc1cc(Br)cc(CN2CCN(C)CC2)c1O	-1.2	-18	-4.3%[38.3 µM]	-8	1	0.1
CCOc1ccc(N2C(=O)NC(=O)/C(=C\c3ccc(N4CCOCC4)cc3C)C2=O)cc1	1.6	10	3.2%	-10	18	0.0
O=C1NC(=O)N(c2ccc3c(c2)OCO3)C(=O)/C1=C/c1ccc(N2CCCCC2)o1	-2.0	-10	0.6%	-10	-4	7.1
O=C(CNC1CCCCC1)N1CCC2(CC1)OCCO2	-3.7	9	12%	0	3	-0.2
N#CCCn1cc(C=C2C(=O)NC(=O)NC2=O)c(-c2ccccc2)n1	1.1	-12	-1.1%	-13	0	-0.5
CN1CCc2nc3sc(C(=O)NC4CC4)c(N)c3cc2C1	-3.8	-2	0.0%	10	0	1.0
CCC1(c2ccccc2)C(=O)NC(=O)NC1=O	-1.8	-27	0.7%	52	-3	-0.5
O=C/C=C/c1ccccc1	1.4	-1	0.8%	-4	6	-0.2
Nc1ccccc1C(=O)OCC(=O)N1CCc2ccccc21	-4.0	-9	-0.2%	1	1	1.2
CCN1CCN(C(=O)Cc2ccccc2OC)CC1	-1.1	-6	0.7%	49	0	-0.2
CC1CCN(c2cc(Br)c([N+](=O)[O-])cc2F)CC1	4.7	-5	5.3%	-6	-17	?
Cc1cc(C(=O)N=Nc2c(O)n(C)c3ccccc23)c(C)o1	-0.5	-22	7.7%	-2	-1	-0.2
Cc1cc(C)c(N=Cc2c(O)[nH]c(=O)[nH]c2=O)c(C)c1	0.9	7	-0.7%	4	2	-0.7

# Brought forward from above: 2 entries; new compounds follow.
canonical_smiles	D2 ag	D2 potentiator	PINK1 expr mod	TRPML1 inh	Six1-Eya2 blk	TRPML1 agonist
Cc1cc(C(=O)N=Nc2c(O)n(C)c3ccccc23)c(C)o1	-0.5	-22	7.7%	-2	-1	-0.2
Cc1cc(C)c(N=Cc2c(O)[nH]c(=O)[nH]c2=O)c(C)c1	0.9	7	-0.7%	4	2	-0.7
O=[N+]([O-])c1ccc(CNCCc2ccccc2)cc1	0.2	-63	-1.2%	·	-4	·
CC1CCN(C(=O)COC(=O)c2cn(C)c3ccccc23)CC1	-1.0	-4	1.4%	-10	6	-0.5
CN(C)P1(=O)N(C)CCN1C	-1.6	1	1.6%	·	1	-0.2
Cc1[nH]nc2c1C1(CCC(c3ccccc3)CC1)C(C#N)=C(N)O2 (stereo not given)	0.6	-3	?	6	-2	-0.4
O=C1NCN(c2ccccc2)C12CCN(C(c1nnnn1C1CCCC1)C1CC1)CC2 (stereo not given)	-3.4	-7	3.0%	·	1	-0.6
COC(=O)C1=C(c2ccc(-c3ccccc3)c(F)c2)C[C@@H]2CC[C@H]1N2C(=O)N1CCC(C)CC1	-5.2	-29	15%	5	-11	-0.5
COc1ccccc1OC(=O)c1ccc(C)c(S(=O)(=O)N2CCOCC2)c1	-5.2	-1	-0.3%	27	2	2.2
CCNc1nc(Cl)nc(NC(C)C)n1	-1.4	-7	4.7%&-0.8%	15	3	-1.2
CC(=O)O[C@@H]1/C=C/[C@](C)(O)C[C@@H](C)C/C=C/[C@H]2[C@@H]3O[C@]3(C)[C@@H](C)[C@H]3[C@H](Cc4ccccc4)NC(=O)[C@@]312	11	10	18%	·	9	·
C=CCN1C(=O)CSc2ccc(C(=O)N3CCC4(CC3)OCCO4)cc21	-1.2	2	9.7%[38.3 µM]	-13	2	0.0
C=CCN1C(=O)NC(=O)/C(=C/c2ccc(OC)c(CSc3ccccn3)c2)C1=O	-1.8	-6	1.3%	4	6	0.6
COC(=O)C1=C(c2cccc(C#N)c2)C[C@@H]2CC[C@H]1N2C(=O)NCCNC(C)=O	-3.2	-3	2.0%	-5	1	-0.9
COc1ccc(CCC(C)NCCc2ccccc2)cc1 (stereo not given)	-3.2	-23	-2.4%[38.3 µM]	5	3	-0.4
O=C1C2CCN(CC2)C1Cc1ccc(OCCOc2ccccc2)cc1 (stereo not given)	-2.3	-17	0.9%	-11	17	0.8
O=c1c2ccccc2nc(/C=C/c2ccc(O)cc2)n1-c1ccccc1O	6.8	8	-0.2%	12	16	0.5
CN1CCC2(O)OCCCC2C1 (stereo not given)	4.9	-2	4.9%	-14	15	-0.7
Cc1ccc(Oc2cc(NN3CCCCC3)c([N+](=O)[O-])cc2[N+](=O)[O-])c([N+](=O)[O-])c1	1.4	-9	0.6%	3	-23	0.5
COP(=O)(OC)C1(Nc2ccc(C)cc2)CCCCC1	-0.9	-2	0.2%	-1	-1	-0.3
Cc1cc(/C=C2\C(=O)NC(=O)N(c3ccc(Cl)cc3)C2=O)c(C)n1-c1cccc(C(=O)O)c1	3.6	-7	-0.6%	-9	-22	1.6
COc1cccc(N2C(=O)/C(=C/c3ccc(C)o3)C(=O)NC2=S)c1	-4.0	-11	0.9%	-16	-18	1.4
CN1C(=O)C(=Cc2coc3ccccc3c2=O)C(=O)N(C)C1=O	-5.9	-24	9.2%	7	1	-0.2
O=c1[nH]c(=O)n(-c2cccc3ccccc23)c(O)c1C=NCCCn1ccnc1	-4.4	-26	0.6%	6	2	-0.6
O=[N+]([O-])/C(Cl)=C1\NCCN1Cc1ccc(Cl)nc1	-3.6	-9	0.7%	22	-1	-0.5
CCOC(=O)[C@]12Cc3ccccc3[C@H]1N(C)C(=O)c1cc(OC)ccc12	·	·	-0.8%	·	7	-0.9
CCN1C(=O)c2ccccc2Sc2ccc(NC(=O)Nc3ccc(Br)c(C)c3)cc21	·	·	16µM*	-2	·	0.7
CN1CCC(OC(=O)c2cccc(F)c2)CC1	2.2	-33	1.4%	-3	10	-0.3
O=c1c2ccccc2nc(/C=C\c2ccc(F)cc2)n1-c1ccccc1F	·	·	0.4%	3	·	-0.2
CCn1c(C)c(C(=O)Nc2ccc(OC)cc2)c2cc(OC)ccc21	-2.3	-6	4.9%	15	-2	1.4
CC(=O)N(C)C1=Nc2ccc(Cl)cc2C(c2ccccc2)=[N+]([O-])C1	2.9	2	-0.5%	-4	3	-0.7
COC(=O)OCC12CCC(O1)C1(C)C(=O)OCC21 (stereo not given)	-1.5	-9	-0.3%	12	-4	-0.3
CN(C)[C@@H]1C(=O)C(C(N)=O)=C(O)[C@@]2(O)C(=O)C3=C(O)c4c(O)cccc4[C@@](C)(O)C3[C@H](O)C12 (stereo not given in full)	9.1&7.0	-1&1	-0.3%&0.2%	-10&2	-9&-10	13&2.8
O=C(/C=C/c1ccccc1)N1Cc2ccccc2-n2nncc2C1	-8.4	-2	0.5%	0	-6	0.6
COc1ccc(OC)c(NP(=O)(Oc2ccc(Cl)cc2)Oc2ccc(Cl)cc2)c1	-2.3	-15	-2.0%	-2	3	0.4
O=C(Nc1ccon1)c1cccn(Cc2cccc([N+](=O)[O-])c2)c1=O	·	·	-1.1%	-14	·	-0.2
Cn1c(O)c(C(=Nc2ccccc2)SCc2ccccc2Cl)c(=O)n(C)c1=O	-3.6	-3	8.5%	-15	0	0.2
COc1ccc(CC[n+]2cc(/N=C(\C)[O-])on2)cc1OC	-0.7	-4	-0.2%[38.3 µM]	4	2	-0.1
COc1ccccc1C1CC2CCC(C1OC(C)=O)N2Cc1ccccc1 (stereo not given)	·	-6	1.7%	-1	-1	1.5
CCN(CC)P(c1n(C)cc[n+]1C)N(CC)CC	-4.5	3	-1.0%	35	11	1.8
Cc1nn(Cc2ccccc2Cl)c(C)c1C(=O)OCC(=O)NC1CCS(=O)(=O)C1 (stereo not given)	2.3	-11	-0.5%	-6	6	0.6
Cc1cc(C)cc(-n2c(O)c(C=Nc3ccc(N4CCOCC4)cc3)c(=O)[nH]c2=S)c1	0.4	-7	1.2%	-11	2	13
Cc1c2cnn(CC(=O)N3CCC4(CC3)OCCO4)c(=O)c2c(C)n1Cc1cccc(Cl)c1	-13	-17	-0.1%	-2	-5	-0.4
C/C(=N\NC(=O)c1ccccc1O)c1c(O)n(C2CCCCC2)c(=O)[nH]c1=O	4.0	-1	-0.4%	22	0	2.1
COC(=O)C1=C(c2cccc(OCc3ccccc3)c2)C[C@@H]2CC[C@H]1N2C(=O)NCc1ccc(F)cc1	-4.6	-10	-1.5%	53	-1	1.3
O=c1c2ccccc2nc(/C=C/c2ccccc2F)n1-c1cccc(O)c1	·	·	4.5%	5	·	21
c1ccc(-c2ccc(-c3n(-c4ccccn4)c4ccccc4[n+]3-c3ccccn3)cc2)cc1	4.2	-16	6.9%	18	-7	2.7
O=C1CCCN1C(=O)c1cncc(Br)c1	-0.8	-5	4.3%	1	3	0.2
Clc1cccc(N2CCNCC2)c1Cl	-0.6	-4	1.9%	-5	2	0.0
CCOC(C[n+]1c(-c2ccccc2)cc(C)cc1-c1ccccc1)OCC	-2.8	-57	2.9%	-8	-1	-0.8
Cc1cc(OC(C)C(=O)NCC(O)c2ccccc2)c2c3c(c(=O)oc2c1)CCCC3 (stereo not given)	-3.1	-1	-0.2%	1	10	-0.3
O=C(/C=C/c1ccccc1)c1c(O)n(CCc2ccccc2)c(=O)[nH]c1=O	-1.0	9	2.4%	15	-1	2.0
CC(=O)N1CN(C(C)=O)CN(C(C)=O)C1	2.0	-4	-1.2%	-6	-1	3.1
COc1ccccc1N1CCN(CCc2c[nH]c3cc4c(cc23)OCO4)CC1	-6.8	-33	-1.4%	6	?	23
CCOc1cc(C)cc2oc(=O)c3c(c12)CCCC3	-2.7	-4	8.1%	-2	11	2.8
CC(C)(C)c1ccc(C(=O)C2CCCN(C3CCC3)C2)cc1 (stereo not given)	-0.3	-15	9.5%	-6	3	0.4

# Bioassay records deposited in PubChem BioAssay by National Center for Advancing Translational Sciences (NCATS).

# An excerpt; count on the stated rates, not on these rows.
